Source: PubChem
ugtP null kill: compounds lethal to S. aureus RN4220 ugtP deletion mutant; OD600 growth, 16 h; some inactives read as strong as hits; growth inhibition, % (no concentration beside the values); 0.54% of 330,000 active; AID 1259309;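 active = z-score under -3 and OD600 up to 0.15 on both plates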;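 also: plate controls were untreated wells for no effect and antibiotic for full effect; wells of about 80 µL received 100 nL stock; the first replicate is given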
RN4220 kill: kills Staphylococcus aureus RN4220 | S. aureus RN4220 growth, OD600, 16 h | inhibition, % (no concentration beside the values) | 0.33% of 330,000 active;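 active = z-score of -3 or lower and OD600 up to 0.18 on both plates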;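 also: plate controls were untreated cells for no effect and reference antibiotic for full effect; stock transfer was 100 nL into about 80 µL; one replicate is shown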
PrP 5UTR inh: suppresses PrP 5' UTR mRNA reporter expression. inhibition, % (no concentration beside the values). cell-based PrP 5' UTR mRNA reporter, plate reader. AID 488862. 0.35% of 340,000 active;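 active = every replicate at 50% or more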;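 also: 0 = median of the neutral control wells; tested in H4 reporter cells; numbers are from one replicate; inactives centre near -14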
BJeLR viability: BJeLR cell viability loss. BJeLR (HRASV12) viability, CellTiter-Glo ATP luminescence, 48 h; reference of the scale not given here. inhibition, % (test concentration not listed). AID 1554. 0.17% of 300,000 active;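 active = replicate mean above 50%; inconclusive = above 50% but judged a plate artefact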;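 also: 50 nL library stock added to about 25 µL; numbers are from one replicate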
Mtb hypoxia inh: inhibitors of hypoxia-regulated fluorescent reporter in Mycobacterium tuberculosis; fluorescence inhibition, % (concentration not given with the values); M. tuberculosis hypoxia-regulated fluorescent reporter, fluorescence; 0.1% of 300,000 active; AID 1159583;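 active = 35 to 45% if threefold the growth effect, above 45% if 1.5-fold the growth effect; inactive = the rest, general growth blockers included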;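 also: wells of about 50 µL received 100 nL stock; 0% = vehicle wells and 100% = reference inhibitor wells; whole bacteria with a GFP reporter of the hypoxia response; strong numbers were not always called active; many hits fall short of the cut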
Autofluor counter: counter-screen for toxin protease inhibitors: compound fluorescence; compound autofluorescence counterscreen, microsphere flow cytometry; hits give high values; fluorescence intensity (concentration not given with the values); 3.1% of 360,000 active;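 active = at least 3 SD above the mean of all compounds, about 16000 in these data; inconclusive = too few beads counted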;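 also: 100 nL of 1 mM stock went into each well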
Mtb hypoxia inh growth: recorded beside Mtb hypoxia inh, whose call it bears; growth inhibition, %; measured here: M. tuberculosis growth (absorbance);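 0% = vehicle and 100% = reference antibiotic; read after six days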
The depositor's hits bear a star; u = inconclusive; x = not tested or not shown.

SMILES	ugtP null kill	RN4220 kill	PrP 5UTR inh	BJeLR viability	Mtb hypoxia inh	Mtb hypoxia inh growth	Autofluor counter
COC(=O)c1ccccc1S(=O)(=O)N1CCC(C(=O)OC(C)C(=O)NC(N)=O)CC1 (stereo unspecified)	6	4.1	-10	-2	8	7	3190
COC(=O)c1ccccc1S(=O)(=O)N(Cc1cc2ccc(OC)cc2[nH]c1=O)CC1CCCO1 (stereo unspecified)	2	3.3	-16	-18	3	-2	10293
Cc1ccc(S(=O)(=O)N(C)c2nc3ccccc3[nH]c2=S)cc1	6	4.5	-21	11	4	11	5879
NNC(=O)c1ccc(COc2ccc(Br)cc2)o1	0	0.1	-14	0	2	5	2867
O=c1ccc2cc(S(=O)(=O)Nc3ccccc3F)ccc2o1	-5	1.3	-19	2	-6	12	3785
CC(=O)c1cc(C#N)c(SCC(=O)OC(C)C)nc1C	60	4.5	-22	1	9	19	12718
O=C(NCC1CCCN1S(=O)(=O)c1cccs1)c1ccc(Cl)cc1 (stereo unspecified)	3	1.5	-20	4	1	-1	6754
CCOC(=O)C1=C(COC(=O)CCC(=O)c2ccc(C)cc2)NC(=O)NC1C (stereo unspecified)	6	4.8	-18	x	5	5	u
CN(CC(=O)N1CCN(c2ccccn2)CC1)S(=O)(=O)c1ccc2ccccc2c1	-10	-3.4	-4	0	-4	4	13342
Cc1ccc(CSCC(=O)N(C)CC(=O)Nc2ccc(Cl)c(Cl)c2)cc1	-10	-3.8	-3	8	13	1	5298
CC1CCN(C(=O)CSCc2ccc(Cl)cc2)CC1	11	6.1	-9	-2	x	x	2257
CN(C)c1ccc(/C=C/c2ccc3ccccc3n2)cc1	-4	-4.1	84*	71*	16	6	4319
Cc1[nH]c2c(C(F)(F)F)cccc2c1CCN	8	1.2	-30	30	x	x	3038
CN(C1CCCCC1)S(=O)(=O)c1ccc(-c2ccccn2)s1	-7	3.4	x	0	10	1	3705
COC(=O)CNC(=O)CN(c1ccc(OC)cc1OC)S(=O)(=O)c1ccccc1	0	14	-15	x	12	4	5788
CC1CN(C(C)CO)C(=O)c2cc(NC(=O)Cc3cn(C)c4ccccc34)ccc2OC1CN(C)C(=O)Nc1ccc2c(c1)OCO2 (stereo unspecified)	-2	2.3	x	x	-9	11	x
O=S1(=O)C2CC3O[C@]2(CC3c2ccc(F)cc2)CN1Cc1ccc(Cl)cc1 (stereo partly specified)	-21	2.3	x	x	4	7	x
CC1=C(C(=O)OCc2ccccc2)C(c2ccccc2)NC(=O)N1CCCCCC(=O)O (stereo unspecified)	10	2.6	14	-6	10	8	3818
COC(=O)C[C@H]1c2ccccc2S(=O)(=O)N1Cc1ccc(OC)cc1	x	x	-19	0	x	x	2953
CCOc1ccc(S(=O)(=O)N2CCN(C(=O)c3cccnc3)CC2)cc1	1	-1.1	-19	12	10	15	3979
CCOC(=O)C1(Cc2cccc(OC)c2)CCN(CC2CC=CCC2)CC1 (stereo unspecified)	5	3.3	-9	-2	-5	1	4848
CCCn1c(=O)c(Br)cn(-c2ccccc2C)c1=O	6	2.5	-12	-1	5	-4	3766
CC(=O)N(CN1C(=O)c2ccc([N+](=O)[O-])cc2C1=O)c1ccc(F)cc1	-2	2.6	-2	3	-3	3	8250
COc1ccc(CNC(=O)CCNC(=O)c2ccc(C(C)(C)C)cc2)cc1OC	6	0.4	-14	x	1	-5	5015
Cc1ccc(OCCC(=O)OCC(=O)Nc2ccc(F)cc2)cc1	2	3.5	-4	8	4	13	u
O=C(c1ccc([N+](=O)[O-])cc1)N(Cc1ccc(Cl)cc1Cl)N1C(=O)CCCC1=O	7	3.3	-4	-12	2	-1	22479*
Cc1cc(C)c(OCC(=O)Nc2nnn(C)n2)c(Br)c1	9	1.2	2	-4	x	x	3650
CCc1sc(C(=O)Nc2cc(Cl)ccc2N2CCCCC2)cc1C	24	0.2	-12	1	x	x	3727
CC(=NNC(=S)Nc1cccc(C)c1)c1cc2ccccc2o1	-4	5.3	x	x	-3	9	x
Cn1c(CCN2CCOCC2)nc2cc(NS(=O)(=O)c3ccccc3)ccc21	4	4.2	-1	-5	16	6	6053
NC(=O)C1CCN(C2=C(NS(=O)(=O)c3ccc(Br)cc3)C(=O)c3ccccc3C2=O)CC1	-5	8.9	-3	9	-8	12	5447
Cc1cccc(C(=O)NNC(=O)c2ccccc2Br)c1	13	5.4	-10	-12	8	1	3428
Cn1c(CCC(=O)Nc2cc(S(C)(=O)=O)ccc2Cl)nc2cc(S(=O)(=O)N3CCOCC3)ccc21	0	-0.1	-28	-2	15	1	6389
COc1ccc(C(=O)NC(=S)NNC(=O)c2ccccc2C)cc1	12	38	-17	0	-7	3	3977
C/C(CC(=O)Nc1cc(Cl)ccc1Cl)=N\NC(N)=S	x	x	-4	-20	x	x	3329
COc1ccc(Cn2c(=O)[nH]c3cc(OC)c(OC)cc3c2=O)cc1	-1	5.7	-7	-2	-1	-1	3925
O=C(CN1CCN(S(=O)(=O)c2ccc(F)cc2)CC1)Nc1cccc(C(F)(F)F)c1	-2	-0.1	-6	-1	x	x	2834
COc1ccc(Cl)cc1Nc1nc(NCCO)nc(N2CCCC2)n1	-9	-1.8	-12	1	x	x	3482
CS(=O)(=O)Nc1ccc(C(=O)Nc2ccc(S(=O)(=O)Nc3nccs3)cc2)cc1	12	5.0	4	-10	21	20	6238
O=[N+]([O-])c1cnn2cc(Br)cnc12	5	1.9	-22	11	18	8	4304
COc1ccccc1CCNC(=O)c1ccc2nc[nH]c2c1	-2	-1.1	8	13	-2	2	6199
CCn1c(SCC(=O)NC2CC2)nnc1-c1cccc(OC)c1	10	4.5	-1	-20	8	-23	5434
CCOCC(=O)NCc1ccc2c(c1)OCO2	5	-0.7	-13	2	x	x	2721
O=S(=O)(c1cccc2nsnc12)N1CCN(c2ccccc2F)CC1	0	5.8	-13	1	7	5	4411
O=S(=O)(NN=Cc1cccnc1)c1ccccc1	-7	-1.8	x	x	-7	6	x
[O-]/[N+](=C\c1ccccc1)[C@@H]1CCCC[C@@H]1/[N+]([O-])=C/c1ccccc1	0	0.3	4	8	x	x	4463
COC(=O)C(C)N1C(=O)S/C(=C\c2ccc(-c3ccc(C(=O)O)cc3C)o2)C1=O (stereo unspecified)	5	8.6	-34	-19	-7	-14	3837
Cc1cc(C)c(S(=O)(=O)NC2CCN(Cc3ccccc3)CC2)c(C)c1	-5	0.1	-4	6	10	7	5513
CC(=O)c1ccc(S(=O)(=O)N2CCN(C(=O)c3ccc(-n4cncn4)c([N+](=O)[O-])c3)CC2)cc1	0	-2.7	-17	x	-5	3	4193
O=C(NC(Cc1c[nH]c2ccccc12)C(=O)O)/C(=C\c1ccc2c(c1)OCO2)NC(=O)c1ccccc1 (stereo unspecified)	10	2.4	-11	15	-2	1	3427
O=C1CCN(Cc2ccccc2)C(=S)N1	5	2.1	-20	x	19	10	3672
CC(=O)N1CCOc2ccc(S(=O)(=O)N3CCC(C(=O)NCc4ccccc4)CC3)cc21	5	-0.6	-12	5	-1	3	5443
CCC(=NCc1ccco1)c1c(O)[nH]c(=O)[nH]c1=O	4	1.7	-10	-4	7	8	3292
Cc1cccc(C)c1NC(=O)CN1C(=O)NC(C)(C2CC2)C1=O (stereo unspecified)	6	4.5	-13	x	12	1	3354
COc1ccc2nc(NC(=O)CCn3cccc3)sc2c1	4	-0.7	-38	-3	6	14	3088
CCCCN(CCCC)c1nc2ccccc2nc1C(C#N)C(=O)NCCCOC (stereo unspecified)	2	-20	4	-4	17	-23	2996
CCOC(=O)C1CCN(S(=O)(=O)c2ccc(-c3ccc(=O)[nH]n3)o2)CC1	2	-0.3	-18	6	-5	-7	x
COc1cnc(SCc2ccc(Cl)c(Cl)c2)nc1Cl	-3	-3.9	-12	17	6	4	20752*
CCCCCOC(=O)c1cc(=O)[nH]c2ccccc12	-12	0.8	-14	-1	x	x	4720
COc1cccc(-c2nc(-c3ccc4c(c3)-c3ccccc3S4(=O)=O)c(-c3ccccc3)[nH]2)c1OC	1	6.2	15	-10	-2	19	2318

Full records, quoted from the list:
Shown for CCCCCOC(=O)c1cc(=O)[nH]c2ccccc12 → ugtP null kill = -12; RN4220 kill = 0.8; PrP 5UTR inh = -14; BJeLR viability = -1; Mtb hypoxia inh = x; Mtb hypoxia inh growth = x; Autofluor counter = 4720
Shown for [O-]/[N+](=C\c1ccccc1)[C@@H]1CCCC[C@@H]1/[N+]([O-])=C/c1ccccc1 → ugtP null kill = 0; RN4220 kill = 0.3; PrP 5UTR inh = 4; BJeLR viability = 8; Mtb hypoxia inh = x; Mtb hypoxia inh growth = x; Autofluor counter = 4463

(cont.)
SMILES	ugtP null kill	RN4220 kill	PrP 5UTR inh	BJeLR viability	Mtb hypoxia inh	Mtb hypoxia inh growth	Autofluor counter
COc1ccc(OC)c(/C=N/NC(=O)c2cnccn2)c1	x	x	-24	0	x	x	3754
N#CC(C#N)=C(N)Nc1cccc(Cl)c1	-2	3.1	-24	-1	-7	8	5108
Cc1ccc(-c2csc(Nc3ccc(S(N)(=O)=O)cc3)n2)o1	1	4.0	-9	3	10	2	4998
CCOc1ccc(C(=O)Nc2nnc(C3=COCCO3)o2)cc1	x	x	-8	-6	x	x	6605
CCOC(=O)/C=C/C(=O)Nc1ccc(S(=O)(=O)Nc2nccs2)cc1	13	2.3	-14	11	x	x	3783
CCN(C[C@H]1N[C@@](CC)(C(=O)OC)[C@H]2C(=O)N(C)C(=O)[C@@H]12)C(=O)Nc1ccc(C(F)(F)F)cc1	1	0.0	-28	x	2	6	3416
O=C(/C=C/c1ccccc1)NNC(=O)C1CC1	-6	1.4	-22	6	-5	2	21872*
CC(NC(=O)c1ccccc1)c1nnc(SCC(=O)NC2=NCCS2)n1C (stereo unspecified)	2	-1.4	-22	4	-9	-18	3552
Cc1oc(-c2ccc(-c3ccccc3)cc2)nc1CN(C)C1CCOC1 (stereo unspecified)	6	0.0	-42	-2	12	8	4167
COCCCn1c(SCC(=O)NC(C)(C)C)nnc1-c1ccccc1	1	0.4	x	-14	-2	-3	9924
NC(=NOC(=O)c1cccc([N+](=O)[O-])c1)c1cccnc1	9	1.9	x	x	6	-1	x
COCCNC(=O)Cc1c(C)c2c(cc(C)c3c(C)coc32)oc1=O	1	4.6	-4	0	10	1	3734
COc1ccc(S(=O)(=O)NC2CCCC2)cc1C(N)=O	-3	0.6	-7	4	7	4	u
CC(=NNC(=O)c1cccc(Br)c1)C1CC2CCC1C2 (stereo unspecified)	4	3.2	x	x	-7	7	x
CC(C)CC(=O)OCc1cn(-c2ccccc2)nn1	-3	3.8	-32	7	13	6	21300*
CCOc1ccc(NC(=O)CC2C(=O)N(C)C(=S)N2CCCc2ccccc2)cc1 (stereo unspecified)	8	3.4	-39	-13	3	-1	10559
